From PubChem BioAssay
AID504770 = E. coli YBA685 growth inhibition, screen for V. cholerae RctB inhibitors; E. coli YBA685 rctB-dependent plasmid, OD600 growth, 3 h; active compounds read low; z-score (concentration not given with the values); 130,000 tested, 0.27% active; AID 504770;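 active = z-score under -2 on both plates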;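 also: wells of about 30 µL received 100 nL stock; score is relative to mean and SD of the test wells; the first replicate is given; strong numbers were not always called active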
Ba CapD inh = blocks the Bacillus anthracis CapD enzyme | purified CapD enzyme, fluorescence intensity read-out; active compounds read low; some hits fall short of the stated cut | z-score (test concentration not listed) | 140,000 tested, 0.23% active | AID 492967;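 active = z-score under -4 in either of two replicates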;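 also: stock transfer was 100 nL into about 40 µL; score is relative to mean and spread of the plate; one replicate is shown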
* = called active by the depositor; . = not tested or not shown; & = joins results of further samples.

Value order: AID504770 | Ba CapD inh
Cc1cc(SC2CCOC2=O)nc2ccccc12 (configuration not stated)
→ 1.65 | .
Cc1cc(=O)[nH]c(SCC(=O)C23CC4CC(CC(C4)C2)C3)c1C#N
→ -0.05 | 0.015
CCCN=C(Nc1ccc(Cl)cc1)c1cccnc1
→ 1.8 | -0.51
O=C(N/N=C/c1ccc(Sc2nnc(-c3ccccc3)n2-c2ccccc2)o1)c1ccco1
→ . | 2.2
Cc1cc(C)c(C)c(S(=O)(=O)N2CCC(C(=O)N(C)Cc3nc4ccccc4c(=O)[nH]3)CC2)c1C
→ 0.15 | .
O=C(COc1ccc2ccccc2c1)NCc1ccc2c(c1)OCO2
→ -0.65 | 0.57
CCc1ccc(NS(=O)(=O)c2cccs2)cc1
→ 2.45 | 0.155
COc1cccc(-c2cc(C(=O)NCCCN3CCOCC3)on2)c1
→ 0.6 | 0.125
O=C(CCc1ccccc1)Nc1ccc(-c2nnc(-c3ccccc3)o2)cc1
→ -0.9 | 34.2
N#Cc1cccnc1Sc1ccccc1
→ . | 0.225
Cc1ccc(-n2c(=O)c(C#N)cc3c(=O)n4ccccc4nc32)cc1
→ 0 | 9.14
O=C(Cn1c(=O)n(-c2ccc(F)cc2)c(=O)c2ccccc21)NCc1ccccc1
→ -0.4 | 1.02
O=C1c2cccc3c(Cl)ccc(c23)C(=O)N1Cc1ccccc1
→ . | 3.41
N#CSC12CN3CN(CN(C3)C1)C2
→ 0.2 | .
O=c1[nH]cc(CO)c(=O)[nH]1
→ -0.35 | 0.77
COc1ccc2ccccc2c1CN1CCN(C(=O)OCCN(Cc2cccc(Cl)c2)C(=O)OC(C)(C)C)CC1
→ . | -0.08
Oc1cc(Cc2ccccc2)cnc1CN1CCOCC1
→ -1.25 | 0.68
COc1cc(C2NC(=O)NC(C)=C2C(=O)OCc2ccc3c(c2)OCO3)cc(OC)c1OC (configuration not stated)
→ . | 0.05
O=C(CNc1cccc(Oc2ccccc2)c1)N1CCc2ccccc21
→ 0.4 | 0.965
O=c1[nH]cnc2c1ncn2C1OC(CO)C(O)C1O (configuration not stated)
→ . | -0.49
O=C(COc1nc2ccccc2nc1N1CCOCC1)NC1CCCCC1
→ -0.3 | .
N#CC1=C(N)Oc2n[nH]c(-c3ccncc3)c2C1c1cc2c(cc1Br)OCO2 (configuration not stated)
→ . | 0.015
COC(=O)Nc1ccc(S(=O)(=O)Nc2cc(OC)nc(OC)n2)cc1
→ -0.6 | -1.24
O=C(Nc1ccccc1N1CCCC1)c1cccs1
→ -0.95 | -0.43
c1ccc2sc(Cc3nn[nH]n3)nc2c1
→ -0.7 | 1.72&0.565
Oc1[nH]c2ccccc2c1C=NCCCN1CCOCC1
→ 1.1 | -1.85
CS/C(N)=N/N=C/c1c(F)cccc1Cl
→ . | -1.98
O=C(CSc1nc2ccccc2nc1N1CCOCC1)Nc1ccccc1
→ 0.7 | 0.15
Cc1cc2c(cc(C(=O)NCc3cccnc3)n2Cc2ccc(Cl)cc2)o1
→ 0.65 | -0.08
CCCCn1c(CC(=O)O)nc2cc(S(=O)(=O)N3CCOCC3)ccc21
→ 0.4 | .

5 entries from above, sorted by molecular weight, smallest number first:
Value order: AID504770 | Ba CapD inh
O=c1[nH]cc(CO)c(=O)[nH]1
→ -0.35 | 0.77
CS/C(N)=N/N=C/c1c(F)cccc1Cl
→ . | -1.98
O=C(COc1ccc2ccccc2c1)NCc1ccc2c(c1)OCO2
→ -0.65 | 0.57
Cc1cc(=O)[nH]c(SCC(=O)C23CC4CC(CC(C4)C2)C3)c1C#N
→ -0.05 | 0.015
Cc1cc(C)c(C)c(S(=O)(=O)N2CCC(C(=O)N(C)Cc3nc4ccccc4c(=O)[nH]3)CC2)c1C
→ 0.15 | .

Continuation:
Value order: AID504770 | Ba CapD inh
O=C(O)c1c(Cl)nc2ccccn12
→ -0.25 | -0.29
CSc1ccc(S(=O)(=O)N2CC(=O)Nc3ccccc32)cc1
→ 1.55 | .
CCOC(=O)c1sc(NC(=O)c2cc3nc(-c4ccc(OC)c(OC)c4)cc(C(F)(F)F)n3n2)nc1C
→ . | -0.405
Cc1nc(N2CCC(C)CC2)c2c(C)c(C(=O)N3CCN(c4ccc(F)cc4)CC3)sc2n1
→ -0.3 | -0.195
O=C(c1ccc(Cl)c(Cl)c1)N(c1ccccn1)c1ccccn1
→ 1.85 | -1.23
Cc1c(C(=O)NC(=S)Nc2ccc(N3CCOCC3)cc2)oc2ccccc12
→ -0.9 | -0.32
O=C(O)Cn1ccc(=O)[nH]c1=O
→ -0.35 | .
CCOc1ccc(CCNC(=O)c2cn(CC(C)C)c(=O)c3c2c2ccccc2n3C)cc1OCC
→ -0.95 | -0.04
CCCN(C(=O)CC#N)C(=O)Nc1ccc(Cl)cc1
→ . | -0.285
CN(C)c1ccc(/C=C2\SC(=O)NC2=O)cc1
→ 0.5 | 0.91
COc1cc(OC)cc(C(=O)NCc2nnc(SCC(=O)Nc3nccs3)n2-c2cc(OC)ccc2OC)c1
→ . | -0.375
Cc1cc(C(=O)N/N=C/C=C/c2ccccc2)n[nH]1
→ -0.95 | -1.83
Cc1cc2c(c(=O)o1)C(c1ccc(OC(=O)N3CCOCC3)cc1)C(C#N)=C(N)O2 (configuration not stated)
→ . | 0.675
O=C(Nc1ccc(C#Cc2ccccc2)cc1)C(F)(F)F
→ -0.45 | -0.035
Cc1nc(Cc2nnc(SCc3nc4ccccc4o3)o2)cs1
→ 3.2 | .
CCCNS(=O)(=O)c1ccc2c(c1)CCCC(=O)N2
→ 0.65 | 0.105
CC1=CCC(C(C)COC(=O)NNC(=O)/C=C/c2ccc(F)cc2Cl)CC1 (configuration not stated)
→ . | 11.3
COc1cccc(-c2nn(-c3ccccc3)cc2C(=O)NCC(=O)O)c1
→ 0.25 | 0.895
COc1ccc(OC)c(C2C3=C(Nc4c2c(=O)[nH]c(=O)n4C)c2ccccc2C3=O)c1 (configuration not stated)
→ . | -0.41
O=C1/C(=C/c2ccc(-c3ccc(Br)cc3)o2)C=C(c2ccccc2)N1c1ccc2ccccc2c1
→ . | 0.83
O=C(O)c1ccc2c(c1)C1C(Cl)C(Sc3ccccc3[N+](=O)[O-])CC1C(c1ccc(F)cc1)N2 (configuration not stated)
→ . | -0.265
COc1cc(C(=O)OCc2ncc(-c3ccccc3)o2)cc(OC)c1C
→ 0.1 | .
Cc1ccc(Cl)cc1N(CC(=O)N1CCN(C(c2ccccc2)c2ccccc2)CC1)S(C)(=O)=O
→ . | 0.65
COc1nc(OC/C(N)=N/O)nc(N2CCOCC2)n1
→ 0.6 | -0.285
OCCNc1ccc2ccccc2n1
→ -0.25 | 0.25
Cc1nn(Cc2nc(-c3ccc4c(c3)OCO4)no2)c(C)c1Br
→ 2 | -0.615
O=C(NCc1ccco1)/C(=C/c1ccccc1)NC(=O)c1ccccc1
→ . | -0.49
CC1CC(C)(C)OC(CN2CCCCC2)O1 (configuration not stated)
→ 0 | 0.635
COc1cc2c3c(c1OC)C1(C=CC(=O)C=C1)CC3N(C(=O)c1ccccc1)CC2 (configuration not stated)
→ -0.35 | -0.625
CN1c2ccccc2-c2nc3ccccc3n2C1c1ccncc1 (configuration not stated)
→ -0.95 | 66.7

Remaining list, next part:
smiles,AID504770,Ba CapD inh
COC(=O)c1cc(C(=O)OC)cc(-n2c(C)cc(C3=NNC(=Nc4ccc(OC)cc4)SC3)c2C)c1,2.1,.
CN(Cc1ccccc1)S(=O)(=O)c1cccs1,-0.65,-0.135
S=c1[nH]c2ccccc2[nH]1,.,0.15
CCOC(=O)C1=C(C)NC2=C(C(=O)C(C(=O)OCC)C(c3cccc(OC)c3)C2)C1c1ccc(N(CC)CC)cc1 (configuration not stated),.,-0.27
CCC(=O)N1CCNC(=O)C1CC(=O)OC (configuration not stated),-0.75,.
Cc1ccc(NC(=O)CCN2CCCCC2)cc1,0.8,0.08
O=C(COc1ccc(Cl)cc1Cl)NC1CCSC1=O (configuration not stated),-0.25,.
COC(=O)c1cnc(N)s1,0.65,.
COc1ccc(C(=O)n2ccc(-c3cnc(-c4ccccc4)s3)n2)cc1,.,6.82
OCC1COc2ccccc2O1 (configuration not stated),-0.9,0.145&-0.15
CN(C(=O)COC(=O)Cc1ccc(Cl)cc1)C1CCCCC1,0.2,0.105
CNC(=O)C1CCCN(c2nn3c(=O)cc(C)nc3s2)C1 (configuration not stated),-0.6,-0.86

A few values from the results shown:
S=c1[nH]c2ccccc2[nH]1 | Ba CapD inh = 0.15
CNC(=O)C1CCCN(c2nn3c(=O)cc(C)nc3s2)C1 (configuration not stated) | AID504770 = -0.6

(next part)
smiles,AID504770,Ba CapD inh
CC1(C)C(C=C(Cl)Cl)C1C(=O)NC1CCS(=O)(=O)C1 (configuration not stated),2.1,-1.57
CCOC(=O)c1c(C)n(-c2ccc(Cl)cc2)c2ccc(Oc3nccc(Nc4ccccc4)c3C#N)cc12,.,1.05
O=C(NC1CCN(CC(=O)N(c2ccccc2)C2CCCCC2)CC1)c1ccccc1,.,0.415
O=C1OC(c2ccccc2)=N/C1=C\c1ccc(-c2ccccc2)cc1,.,0.14
COc1cc(OC)c(C2Nc3ccccc3NC3=C2C(=O)CC(c2ccccc2Cl)C3)cc1OC (configuration not stated),.,-1.25
CC(C)CCNC(=O)C1CCCN(S(=O)(=O)c2ccc3c(c2)oc(=O)n3C)C1 (configuration not stated),-0.25,-0.265
O=C1Nc2ccccc2OC1CC(=O)N1CCc2ccccc21 (configuration not stated),-0.8,-0.465
COc1ccccc1C1=NOC(C(=O)Nc2ccc(C)cc2)C1 (configuration not stated),0.8,0.545
O=C(Nc1c2c(nn1-c1ccccc1)CS(=O)C2)C12CC3CC(CC(C3)C1)C2 (configuration not stated),0.45,.
COC(=O)C(O)(c1c(C)nn(-c2ccccc2)c1N)C(F)(F)F (configuration not stated),-0.85,0.55
O=C(COC(=O)c1ccccc1Nc1ccccc1)c1ccccc1,-0.55,0.08
O=C1CCCC(O)=C1C(C#Cc1ccccc1)C1=C(O)CCCC1=O,-0.9,-2.35
O=C(C1CCCN1S(=O)(=O)c1cccc2cccnc12)N1CCc2ccccc21 (configuration not stated),0.5,0.185
COc1cccc(C(=O)Nc2ccc(I)cn2)c1,.,-0.44
CC1(C)CC(=O)C2=C(C1)Nc1ccc3ccccc3c1C2c1cccc(I)c1 (configuration not stated),.,32
COc1ccc(-n2c(=S)[nH]c3c(sc(=S)n3-c3ccccc3)c2=O)c(OC)c1,.,-0.445
COC(=O)c1sc2nc(-c3ccccc3C(F)(F)F)c(S(C)(=O)=O)cc2c1N,.,-0.8
c1ccc(Cn2nnnc2CN2CCC(n3cnc4cccnc43)CC2)cc1,2.55,.
O=C1OCC2=C1C(c1ccc(F)cc1)Sc1ccccc1N2 (configuration not stated),-0.65,.
O=C(Cn1c(=O)oc2ccccc21)N(Cc1ccco1)CC1CCCO1 (configuration not stated),-1.1,0.875
C=CCSC1=NC2(CC(c3ccccc3)Oc3cc(O)ccc32)CC(C)(C)N1 (configuration not stated),.,-0.28
O=C(O)CCC(=O)N1CCN(Cc2ccc3c(c2)OCO3)CC1,-0.05,.
O=C(CSc1nc2ccsc2c(=O)n1CCc1ccccc1)Nc1nccs1,-0.8,-0.065
Cc1cccc(NC(=S)N=Nc2c(O)n(CN3CCOCC3)c3ccccc23)c1C,0.85,-2.59
Cc1ccc(NC(=O)c2sc3nc(C)nc(N4CCN(C)CC4)c3c2C)c(C)c1,.,1.57
CC(C(=O)O)c1ccc(C(=O)c2ccccc2)s1 (configuration not stated),.,-1.31
O=C(NCCc1cnc[nH]1)OCc1nc(-c2ccc(Cl)cc2)cs1,.,-0.2
CC1(C)C2CC=C(COCC(O)CN3CCN(S(=O)(=O)c4ccccc4)CC3)C1C2 (configuration not stated),-0.85,.
N#Cc1ccccc1NC(=O)COC(=O)c1ccc2c(c1)OCCO2,3.25,.
C/C(=N\N(C=O)c1ccc(C(=O)N2CCOCC2)cc1)C(=O)c1ccccc1,-2,.
CCOC(=O)c1sc(NC(=O)C(C)Sc2nnc(CNC(=O)Cc3ccccc3)n2C)c(C(=O)OCC)c1C (configuration not stated),.,-0.34
COc1cc2c(cc1OC)C1C(C(=O)N(C)C3CCCCC3)c3ccccc3C(=O)N1CC2 (configuration not stated),-0.1,0.205
O=C(Cn1cnc2sc(-c3ccccc3)cc2c1=O)c1ccccc1,1.5,3.17
CC(C)(C)c1cc(C(C)(C)C)n(-c2ccc(C(=O)NCc3ccc(C(F)(F)F)cc3)cc2)n1,.,-0.375
CN(CC1COc2ccccc2O1)C(=O)/C=C/c1cccs1 (configuration not stated),0.15,.
COc1ccc(COC(=O)C2=C(C)NC3=C(C(=O)CC(C)(C)C3)C2c2coc3ccc(Cl)cc3c2=O)cc1 (configuration not stated),.,0.005

Looked up one by one from the list above (three):
smiles,AID504770,Ba CapD inh
CN(C(=O)COC(=O)Cc1ccc(Cl)cc1)C1CCCCC1,0.2,0.105
Cc1nn(Cc2nc(-c3ccc4c(c3)OCO4)no2)c(C)c1Br,2,-0.615
COc1cccc(-c2cc(C(=O)NCCCN3CCOCC3)on2)c1,0.6,0.125

Remaining list, next part
smiles,AID504770,Ba CapD inh
Cc1csc(C(C#N)C(=O)CSc2nc(-c3ccccc3)c(-c3ccccc3)o2)n1 (configuration not stated),0.1,.
O=C(NCc1cccc(C(F)(F)F)c1)C1CCN(c2ncccn2)CC1,0.4,1.75
N#Cc1c(-c2ccccc2)nc(N2CCCCC2)[nH]c1=O,-0.55,1.7
Cc1ccc(S(=O)(=O)NCc2ccc(C(=O)N3CCN(c4ccccn4)CC3)cc2)cc1,1.35,-0.05
O=c1c2ccccc2n2c(-c3ccccc3)nnc2n1CCc1ccccc1,0.65,0.125
C/C(=N\NC(N)=O)C1CC(CC(C)C)C(=O)O1 (configuration not stated),1.5,.

Random draw from the library; any-hit rate near 0.39%.
